# High-throughput results from PubChem BioAssay.
# MARV entry inh: blocks Marburg virus binding to or entry into cells; Marburg virus pseudotyped entry inhibition, cell reporter; control for the full effect not named in the record; about a third of the inactives were read at about 46 µM; Potency, µM (top dose mostly 37.8 µM), for the others: at the top dose activity change, negative = inhibition, actives largely listed as inhibitors; 300,000 tested, 1.8% active; active = well fitted inhibition curve with a large enough effect; inconclusive = small, poorly fitted or top-dose-only effect, or effect the other way; inactive = flat fitted curve, though single readings scatter; tested in HEK293 cells; about a fifth of its hits are not listed in these tables; note: luciferase read-out
# RE007 growth inh: less growth of the S. pombe RE007 Vpr strain; S. pombe RE007 Vpr strain, BacTiter-Glo ATP luminescence, 24 h; control for the full effect not named in the record; Potency, µM (series often up to 92.2 µM), without a hit: at the top dose activity change, negative = less growth; 360,000 tested, 0.21% active; AID 651644; active = well fitted falling curve with a large enough effect; inconclusive = small, poorly fitted or top-dose-only effect; inactive = no such curve, though single readings can be large or run the other way;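 note: nearly all actives have a fitted effect of over 50% in size; the assay follows cell death caused by Vpr and the record does not say whether a fall means rescue or toxicity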
#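 Fission yeast RE007 carrying one integrated HIV-1 vpr copy, seeded at OD 0.01 in PMG+AL medium with 23 nL pinned compound. Grown 24 h at 30 degrees; viability read by BacTiter-Glo luminescence after 5 min.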
# 2A StopGo: FMDV 2A StopGo reporter, luciferase signal; human cells with a luciferase reporter of 2A StopGo recoding; control for the full effect not named in the record; Potency, µM (doses to about 57.9 µM), for inactives: at the top dose signal change, negative = less light; 410,000 tested, 1.2% active; active = well fitted falling curve with a large enough effect; inconclusive = small, poorly fitted or top-dose-only effect; inactive = no such curve, though single readings can be large or run the other way; tested in HEK293T cells; note: nearly all actives have a fitted effect of over 45% in size; luciferase light after 4 h
# An asterisk follows results filed as active; ? = inconclusive. % is set by controls: 0 for no effect and ±100 for the full control effect; potency is the fitted concentration of half-maximal effect. This is a subset; the hit share may differ from the screen's.
SMILES,MARV entry inh,RE007 growth inh,2A StopGo
Cc1ccc([C@H]2C[C@@H](O)[C@H](n3cc(-c4ccc(F)cc4)nn3)CN2C(=O)C2CCCCC2)cc1,?,15%,-30%
Cc1ccc(S(=O)(=O)c2cc3c(=O)n4cccc(C)c4nc3n(CCc3ccccc3)c2=N)cc1C,1%,-4%,?
Cn1ccc2c(-c3ccc(F)cc3)cc3c(c21)C1CCC3C1 (stereo not drawn),?,0%,-17%
CC(C)C1C(=O)N(Cc2cn(CC3CCCCC3)nn2)CCS(=O)(=O)N1Cc1ccc(-c2ccc(F)nc2)cc1 (stereo not drawn),?,-1%,-25%
Cc1ccc(S(=O)(=O)NCc2ccccc2)cc1C(=O)N(C)CC(=O)Nc1ccccc1Br,7%,-8%,13%
